GLA inh pH 4.5 – alpha-galactosidase A (human) inhibition, pH 4.5 | P06280 | purified enzyme, 4-MU-alpha-Gal fluorescence, pH 4.5 | activity change, negative = inhibition, % at 105 µM | 230,000 tested, under 10 active | AID 1467; inconclusive = small, poorly fitted or top-dose-only inhibition, or a rising curve; inactive = flat fitted curve, though single readings scatter; no compound was filed as active;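 note: 0% = full activity with enzyme and -100% = basal without enzyme; dose as in the result columns while the protocol names 77 µM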
Target sequence (P06280 whole entry, looked up): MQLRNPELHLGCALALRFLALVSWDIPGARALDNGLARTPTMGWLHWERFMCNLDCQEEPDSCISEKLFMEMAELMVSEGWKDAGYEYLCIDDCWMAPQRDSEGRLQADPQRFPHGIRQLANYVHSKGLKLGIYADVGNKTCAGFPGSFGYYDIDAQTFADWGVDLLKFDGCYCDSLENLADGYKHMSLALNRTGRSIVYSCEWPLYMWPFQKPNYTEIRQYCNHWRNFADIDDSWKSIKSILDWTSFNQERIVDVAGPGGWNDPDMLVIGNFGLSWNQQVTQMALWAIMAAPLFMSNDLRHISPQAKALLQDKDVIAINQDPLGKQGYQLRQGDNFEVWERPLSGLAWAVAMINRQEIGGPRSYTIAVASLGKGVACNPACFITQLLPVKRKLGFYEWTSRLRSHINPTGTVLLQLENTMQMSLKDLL
miR-21 FLuc – miR-21 reporter, rising signal. HeLa miR-21 FLuc reporter, luciferase, 48 h. Potency, µM (top dose mostly 38.3 µM), inactives show at the top dose reporter change, positive = more light. 340,000 tested, under 10 active. AID 2288; active = well fitted rising curve with a large enough effect; inconclusive = small, poorly fitted or top-dose-only effect; inactive = no such curve, though single readings can be large or run the other way;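 note: % of control where 0% means no effect; miR-21 action dims this reporter so a rising signal means less miR-21 action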
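HeLa miR-21-FLuc reporter line, endogenous miR-21; 2000 cells/well in DMEM/10% FBS; compound titration up to ~40uM final, 48 h, 37 degree Celsius; luciferase detection reagent, 15 min lysis, CCD luminescence.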
Rango complex inh – inhibitors of Rango-importin beta complex formation | Potency, µM (titrated, usually from 92.2 µM), for the others: at the top dose inhibition of complex formation | Rango CFP/YFP FRET sensor + importin beta, 45 min | 340,000 tested, 0.031% active | Q14974; active = rising FRET ratio curve, often small or poorly fitted; inconclusive = mostly compound fluorescence or quenching in the first reads; inactive = flat curves in all reads;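 note: potency is the fitted concentration of half-maximal effect; 0% = DMSO wells and 100% = buffer wells lacking importin beta; nearly all actives have a fitted effect of over 15% in size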
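Inhibition scored from the CFP 486 nm/YFP 530 nm FRET ratio 45 min after adding 0.125 microM importin beta to 50 nM Rango biosensor preincubated 5 min with compound (room temperature, PBS with DTT, Tween-20, BSA). No-importin wells as positive control.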
Rango dissoc inh – inhibition of RanGTP-driven Rango-importin beta dissociation. O95149+P62826. Biochemical FRET Rango-importin beta, RanGTP-induced dissociation. Potency, µM (doses to about 46.1 µM), inactives show at the top dose activity change, negative = inhibition. 340,000 tested, 0.071% active. AID 540253; active means falling FRET ratio curve, often poorly fitted, with flat reads before Ran was added; inconclusive means other falling curves, or compound fluorescence or quenching; inactive means flat or rising ratio curve;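 note: potency is the fitted concentration of half-maximal effect; % of control where 0% means no effect; nearly all actives have a fitted effect of over 45% in size; -100% = wells without RanGTP and RCC1; the record marks most hits as doubtful in a second field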
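Quantitative HTS using a FRET biosensor: 0.1 uM Rango, 0.25 uM importin beta, 0.6 uM Ran, 2 mM GTP, 0.2 uM RCC1 final, PBS with DTT, Tween-20 and BSA. Post-read taken 45 min after Ran addition.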
Starred values were filed as active, the others as inactive; ? = inconclusive; · = no result given; & = joins results of further samples; [ ] = dose if it differs, or a comment. Only part of the results is shown, so the mix of outcomes need not match the whole.

SMILES | GLA inh pH 4.5 | miR-21 FLuc | Rango complex inh | Rango dissoc inh
CCOC(=O)C1=C(C)N(C[C@@H]2CC[C@@H](Cc3ccc(-c4ccccc4)cc3)O2)C(=O)NC1C1CC1 (stereo not given in full) | · | · | 1.8% | 34%
CCCCNC(=O)CC(=O)Nc1ccccc1C(=O)O | 10 | 0% | -1.7% | 4%
Cn1c(=O)cc(SCC(=O)N2CCN(c3ccccn3)CC2)c2ccccc21 | 3 | -3% | 6.0% | 2%
Cc1cc(C)c(C)c(S(=O)(=O)Nc2ccc(OCC(=O)O)cc2)c1C | 2 | -2% | 1.8% | 20%
Fc1cccc(Cl)c1Cn1nnc2c(-n3ccnc3)ncnc21 | 5 | 0% | 4.8% | 11%
O=C1CN(C(=O)COC(=O)c2ccccc2NCc2ccco2)c2ccccc2N1 | 20 | -1% | 1.7% | -12%
O=C(COC(=O)c1ccc[n+]([O-])c1)Nc1c(Br)cc([N+](=O)[O-])cc1Br | -6 | 3% | · | ·
CCN(CC)CCC#CC(O)(c1ccccc1)C1CCCCC1 (stereo not given) | -5 | -8% | -1.4% | -4%
O=S(=O)(c1ccc(-c2n[nH]c(=S)o2)cc1)N1CCCC1 | · | 1% | -3.1% | -10%
CC(NC(=O)c1cc(S(=O)(=O)N(C)C)ccc1Cl)C1CC2CCC1C2 (stereo not given) | · | 18% | -0.3% | 10%
CCOC(=O)C1(CC)NC(c2ccc(N(C)C)cc2)C2C(=O)N(C)C(=O)C21 (stereo not given) | -4 | 0% | -2.8% | -11%
Cn1cc(S(=O)(=O)NCc2ccco2)c(=O)n(C)c1=O | -5 | 1% | 0.7% | 1%

Shown with two lines to a compound: entries from further up
Fields: GLA inh pH 4.5, miR-21 FLuc, Rango complex inh, Rango dissoc inh
> CCOC(=O)C1(CC)NC(c2ccc(N(C)C)cc2)C2C(=O)N(C)C(=O)C21 (stereo not given)
  -4, 0%, -2.8%, -11%
> Cn1cc(S(=O)(=O)NCc2ccco2)c(=O)n(C)c1=O
  -5, 1%, 0.7%, 1%

Further results:
SMILES | GLA inh pH 4.5 | miR-21 FLuc | Rango complex inh | Rango dissoc inh
CC(C)c1nc(CNC(=O)C2CCC(=O)N(CCc3ccc(Cl)cc3)C2)no1 (stereo not given) | · | 0% | 4.1% | 0%
O=C(Cc1ccc(-n2c(=O)c3sccc3n(CC(=O)Nc3ccccc3F)c2=O)cc1)NCc1ccco1 | 0 | -3% | ? | -41%
CC(C)C(=O)NC(NC1CCS(=O)(=O)C1)C(Cl)(Cl)Cl (stereo not given) | 4 | 6% | 0.0% | 2%
O=S1(=O)N=C(N2CCCc3ccccc32)c2ccccc21 | -2 | 0% | -1.4% | -25%
O=C(NC1CC1)c1sccc1-n1cccc1 | 3 | -4% | -0.5% | -12%
O=C(CC1S/C(=N\S(=O)(=O)c2ccc(F)cc2)N(c2ccccc2)C1=O)Nc1ccccc1 (stereo not given) | -4 | -2% | 1.8% | 1%
COc1ccc(Cc2nc(-c3cccs3)no2)cc1OC | -3 | -27% | -2.8% | 7%
CC[N+](CC)(CC)C/C(N)=N/O | -5 | -2% | -0.7% | 15%
CCN1CCCC1CN(Cc1cc2ccc(C)cc2[nH]c1=O)C(=S)Nc1cccc(OC)c1 (stereo not given) | -5 | -3% | -4.7% | ?
Oc1c(Cl)cc(Cl)cc1C(C#Cc1ccccc1)N1CCOCC1 (stereo not given) | -4 | -4% | ? | ?
COC(CNC(=O)C(C)n1nc(C)c2ccccc21)OC (stereo not given) | -10 | -2% | 0.7% | 14%
CC(C)NC(=O)Nc1cccc(Cl)c1 | 5 | -6% | 3.1% | -2%
CN(Cc1ccccc1)C(=O)c1cnc2n(c1=O)CCS2 | 3 | -5% | 2.0% | 8%
COc1ccc(CCN2C(=O)CCC2(C)C(=O)NC2CCCC2)cc1OC (stereo not given) | -5[21.1 µM] | 1% | 1.1% | 1%
CC(=O)OCC1OC(n2ccc(=O)[nH]c2=O)C(O)C1O (stereo not given) | -2 | -2% | 1.0% | 7%
CC(=O)Nc1ccc(S(=O)(=O)Nc2ccc(Cl)nn2)cc1 | 2 | 0% | -2.9% | -3%
O=C(CSc1nc2ccccc2nc1N1CCCC1)Nc1ccc(Cl)cc1 | · | -8% | ? | -21%
COc1ccc(NC(=O)c2ocnc2C)cc1OC | 2 | -24% | 4.1% | 9%
Cc1ccc(-n2nc3c(c2NC(=O)c2cccs2)CS(=O)(=O)C3)cc1 | · | 2% | -0.2% | -6%
C=C(C)COc1ccc2oc(C)c(C(=O)OCCOC)c2c1 | 8 | -10% | -1.5% | 8%
CC12CC3CC(C)(C1)CC(C(=O)Nc1nn[nH]n1)(C3)C2 | 12 | -6% | 2.2% | -1%
COc1ccc(OC)c(S(=O)(=O)NCCO)c1 | 1 | -1% | -0.3% | 5%
Cc1ccc2nc(C)c3c(c2c1)N(c1ccccc1)CC3 | 17 | ? | -0.6% | 1%
O=c1c2cc(F)ccc2[nH]c(=S)n1Cc1ccc(F)cc1 | · | -1% | 1.9% | -12%

Some of these compounds in order of count of non-hydrogen atoms, high to low.
SMILES | GLA inh pH 4.5 | miR-21 FLuc | Rango complex inh | Rango dissoc inh
CCN1CCCC1CN(Cc1cc2ccc(C)cc2[nH]c1=O)C(=S)Nc1cccc(OC)c1 (stereo not given) | -5 | -3% | -4.7% | ?
O=C(CSc1nc2ccccc2nc1N1CCCC1)Nc1ccc(Cl)cc1 | · | -8% | ? | -21%
Cc1ccc(-n2nc3c(c2NC(=O)c2cccs2)CS(=O)(=O)C3)cc1 | · | 2% | -0.2% | -6%
Oc1c(Cl)cc(Cl)cc1C(C#Cc1ccccc1)N1CCOCC1 (stereo not given) | -4 | -4% | ? | ?
C=C(C)COc1ccc2oc(C)c(C(=O)OCCOC)c2c1 | 8 | -10% | -1.5% | 8%
O=c1c2cc(F)ccc2[nH]c(=S)n1Cc1ccc(F)cc1 | · | -1% | 1.9% | -12%
CC12CC3CC(C)(C1)CC(C(=O)Nc1nn[nH]n1)(C3)C2 | 12 | -6% | 2.2% | -1%
COc1ccc(NC(=O)c2ocnc2C)cc1OC | 2 | -24% | 4.1% | 9%
COc1ccc(OC)c(S(=O)(=O)NCCO)c1 | 1 | -1% | -0.3% | 5%
CC(C)NC(=O)Nc1cccc(Cl)c1 | 5 | -6% | 3.1% | -2%

Going on with the list.
SMILES | GLA inh pH 4.5 | miR-21 FLuc | Rango complex inh | Rango dissoc inh
CCc1ccc(NC(=O)CSc2nc3ccsc3c(=O)n2CCC(=O)O)cc1 | · | 3% | 1.6% | -9%
CC(=O)Nc1ccc(CC#N)cc1 | 10 | -3% | 1.0% | 10%
O=C(O)c1csc(Cc2ccccc2)n1 | -15[21.1 µM] | -1% | 3.3% | 8%
COC(=O)c1sccc1NC(=O)CSc1nnnn1-c1ccccc1F | 8 | -11% | -1.2% | -3%
O=C(Nc1cccc2c1CCCC2)c1ccccc1Cl | · | -15% | 4.4% | -2%
O=C(Nc1cccc2cccnc12)c1cccnc1 | -7 | -7% | -0.2% | -7%
O=S(=O)(Nc1ccc(O)c(Sc2nc3ccccc3s2)c1)c1ccc(Cl)cc1 | 2 | 9% | -1.6% | -4%
Cc1ccc(N=Nc2c(C)[nH]n(C(N)=S)c2=O)cc1C | -17 | -46% | ? | 1%
O=C(Nc1ncc(Cl)cc1Cl)c1c(F)cccc1Cl | 7 | -20% | -2.1% | -7%
C#CCOC(=O)/C(=C/C=C/c1ccccc1)NC(=O)c1ccccc1 | 3 | 1% | 2.5% | 0%
Cc1csc(NC(=S)Nc2cccc(Cl)c2)n1 | -4 | -17% | -2.0% | 21%
COC(=O)C1=C(C)NC2=C(C(=O)CCC2)C1c1cn(Cc2ccc(Br)cc2)nc1-c1ccccc1 (stereo not given) | 4 | 8% | ? | ?
COc1cc(Br)c(Br)cc1N | 6 | 3% | -0.2% | 1%
CCCS(=O)(=O)N1CCCC(C(=O)Oc2ccc(OC)cc2)C1 (stereo not given) | · | 0% | -0.1% | -3%
CCN1CCN(C(=O)c2ccc(CS(=O)Cc3ccc(C)cc3)o2)CC1 (stereo not given) | · | -4% | 2.9% | 0%
CC(C)(C)c1ccc(/C=C2\Oc3cc(O)ccc3C2=O)cc1 | · | -9% | ? | ?
O=C(c1cnccn1)N1CCN(c2ccccc2F)CC1 | -7 | 1% | 3.3% | -6%
Cc1ccc(NC(=O)C(Cc2ccccc2)NC(=O)OCc2ccccc2)cc1C (stereo not given) | -6 | 3% | 0.5% | -13%
CCc1cccc(NC(=O)C2CCCN2S(=O)(=O)c2cccc3cccnc23)c1 (stereo not given) | · | 1% | 6.4% | -4%
O=C(CSc1n[nH]c(=O)n1C1CC1)NCc1ccccc1 | 7 | 10% | 3.8% | 10%
Cc1ccc(-c2nc(CS(=O)CC(=O)NC3CCC(C)CC3)c(C)o2)cc1 (stereo not given) | 0 | 5% | ? | -17%
O=C(Nc1nnc(Cc2ccccc2F)s1)Nc1ccccc1F | · | -16% | 0.1% | -6%
CC1=CC(=O)C=C(C)C1=NOC(=O)/C=C\c1ccccc1 | -10 | -9% | -2.1% | 18%
Cc1cc(OCc2nnc(SC(C)C(=O)O)n2-c2ccccc2)ccc1Cl (stereo not given) | · | -1% | -3.4% | 0%
COc1ccc(C2NCCc3c2[nH]c2ccccc32)cc1COc1ccc(F)cc1 (stereo not given) | -4 | ? | -0.6% | 14%
CCn1cc(CCC(=O)NCc2ccccc2OC)c2ccccc21 | · | -4%&-7% | -2.5% | 0%
CCCCOc1ccc(Cl)cc1CSc1nnc(C)n1N | 0 | -4% | -0.6% | 1%
CSc1nc(C)cc(OCC(=O)n2nc(C)cc2C)n1 | 2 | 0% | 3.0% | 2%
COc1ccc(N(CC(=O)NCCC2=CCCCC2)S(=O)(=O)c2c(C)[nH]c(=O)[nH]c2=O)cc1 | 0 | 0% | 1.7% | 9%
CC1CCCC(C)N1C(=O)CCN1C(=O)C2C3C=CC(C3)C2C1=O (stereo not given) | · | -9% | -0.2% | 26%
Cc1sc2nc(C3CC3)nc(SCC(=O)N3CCCc4ccccc43)c2c1C | -11 | -12% | · | ·
O=C(/C=C/c1cccs1)N1CCCC1 | · | -20% | -2.8% | -11%
O=C(N/C(=C/c1cccnc1)C(=O)N1CCOCC1)c1ccccc1 | -2 | -11% | -1.1% | -11%
CCN(CC)S(=O)(=O)c1ccc(/C=C/C(=O)OCC#N)cc1 | 5 | 0% | -0.2% | 0%
Cc1nn(C)c(C)c1C(C)NC(=O)c1ccc(OC2CCN(Cc3ccccn3)CC2)cc1 (stereo not given) | · | 9% | ? | -12%
COc1ccc(NC(=O)c2cc(C(C)C)on2)c(OC)c1 | -6 | -62% | -3.6% | -10%
O=C1CCCN1CCCN1CC(C(=O)N(CCO)Cc2ccccc2)CCC1=O (stereo not given) | · | -2% | 2.3% | 2%
O=C(Nc1ccc(OCc2ccccc2)cc1)Nc1cccnc1 | · | -3% | 4.5% | 8%
COc1cccc(NC(=O)CN(C)C(=O)CSc2nc(C)cc(C)n2)c1 | · | · | 3.7% | -16%
COc1cc(C(=S)N2CCCC2)ccc1OS(=O)(=O)c1ccc(NC(C)=O)cc1 | -4 | 13% | -0.4% | 0%
Cc1cc(C(=O)NCCN2CCOCC2)ccc1[N+](=O)[O-] | 9 | 1% | 6.8% | ?
CN1C(=O)CC(N2CCC(C(N)=O)(N3CCCCC3)CC2)C1=O (stereo not given) | 8 | 1% | -1.9% | 7%
BrC(=C\c1ccccc1)/C=N/Nc1ccc2nncn2n1 | -1 | 18% | 3.4% | 1%
COCCNc1nc(N)c([N+](=O)[O-])c(NCc2ccccc2)n1 | · | -20% | -1.1% | 2%
Cc1ccc(Cn2ccc(NC(=O)c3cc(C(C)C)on3)n2)cc1 | 1 | -24% | -2.5% | 0%
Cc1ccccc1-c1nnc(SCC(=O)Nc2cccc(C)c2C)o1 | 0 | -1% | -2.2% | 2%
O=C(NNC(=O)c1ccc(Br)s1)NC1CCCCC1 | · | -1% | 0.2% | -2%
C[C@H](NC(=O)N1CCn2c1nc1ccccc12)C(=O)NC1CC1 | · | 0% | 4.0% | 11%
